D2 potentiator – potentiates the human D2 dopamine receptor allosterically; P14416; DiscoveRx D2 beta-arrestin cells, luminescence, 90 min; 100% = 57 uM dopamine signal; potentiation, % (no concentration beside the values); 360,000 compounds, 0.23% hits; AID 624464; active = potentiation of 50% or more; inconclusive = 30% to 50%; inactive = 30% or less;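 note: compound concentration not given in the record; tested on top of an EC20 dose of dopamine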
Target sequence (P14416 whole entry, looked up): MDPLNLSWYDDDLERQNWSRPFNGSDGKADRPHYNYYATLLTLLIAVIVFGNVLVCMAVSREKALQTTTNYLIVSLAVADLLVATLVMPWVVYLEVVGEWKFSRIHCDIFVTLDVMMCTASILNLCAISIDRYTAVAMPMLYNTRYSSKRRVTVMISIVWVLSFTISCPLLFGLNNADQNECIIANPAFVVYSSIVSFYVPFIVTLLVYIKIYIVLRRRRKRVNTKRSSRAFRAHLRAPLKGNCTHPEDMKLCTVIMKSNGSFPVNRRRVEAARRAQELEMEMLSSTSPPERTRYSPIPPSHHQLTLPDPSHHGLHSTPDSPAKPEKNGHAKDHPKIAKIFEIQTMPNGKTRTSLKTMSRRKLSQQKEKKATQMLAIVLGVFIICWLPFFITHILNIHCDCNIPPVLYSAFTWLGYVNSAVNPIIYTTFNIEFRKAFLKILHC
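PathHunter D2 cells, attached overnight at 37 deg C, received compound in DMSO plus dopamine at EC20 (50 nM final) for 90 min at 37 deg C. Beta-arrestin recruitment was read as luminescence after 1 h with detection reagent at ambient temperature.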
TRPML1 ag – agonists of human TRPML1 channel; 410,000 compounds, 0.12% hits; TRPML1-expressing cells, Ca2+ dye fluorescence, FDSS; host cell line not named in the record; reference of the full effect not given here; Q9GZU1; activation, % (test concentration not listed); in the data active = activation above about 50%; inconclusive = about 30% to 50%; inactive = below about 30%; note: 0% is about no effect; the text of the record puts the active cut at 80%
Target sequence (Q9GZU1 whole entry, looked up): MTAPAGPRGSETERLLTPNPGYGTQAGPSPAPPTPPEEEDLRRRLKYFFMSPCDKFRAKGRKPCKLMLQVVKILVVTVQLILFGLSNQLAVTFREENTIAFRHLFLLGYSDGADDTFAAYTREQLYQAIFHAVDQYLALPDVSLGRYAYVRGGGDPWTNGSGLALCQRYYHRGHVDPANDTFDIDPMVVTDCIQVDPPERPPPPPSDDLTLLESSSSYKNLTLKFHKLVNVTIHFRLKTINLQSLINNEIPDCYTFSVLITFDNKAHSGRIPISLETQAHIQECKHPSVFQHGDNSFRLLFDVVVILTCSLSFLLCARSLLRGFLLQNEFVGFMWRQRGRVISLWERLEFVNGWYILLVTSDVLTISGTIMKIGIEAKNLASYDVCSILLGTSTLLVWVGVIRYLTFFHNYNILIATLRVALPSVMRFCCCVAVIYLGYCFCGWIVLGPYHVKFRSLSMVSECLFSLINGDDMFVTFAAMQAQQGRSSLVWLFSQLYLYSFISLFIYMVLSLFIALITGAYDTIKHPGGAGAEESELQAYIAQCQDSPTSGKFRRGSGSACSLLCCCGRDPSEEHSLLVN
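Tetracycline-induced TRPML1-DL cells are seeded and incubated overnight before loading with a no-wash Ca2+ dye and quencher. Agonist activity is taken from the 110 s fluorescence read following compound pin-transfer on an FDSS, before EC80 54-4 challenge.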
D2 ag – human D2 receptor agonism in beta-arrestin assay. DiscoveRx PathHunter D2 beta-arrestin, luminescence, 90 min; 100% = 57 uM dopamine signal. P14416. AID 624465. 360,000 compounds, 0.084% hits. activation, % (concentration not given with the values); in the data active = activation above about 40%; inconclusive = about 15% to 40%; inactive = below about 15%; note: the text of the record calls up to 30% inactive
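Agonist mode: compounds alone added to overnight-plated D2 PathHunter cells for 90 min at 37 C, with 57 uM final dopamine (EC100) defining full response. Beta-arrestin recruitment detected by chemiluminescent reagent, read after 1 h at ambient temperature.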
Six1-Eya2 blk – inhibitors of human Six1/Eya2 interaction; AlphaScreen GST-Six1/His-Eya2 binding, biochemical; stronger effect = lower value; control for the full effect not named in the record; activity change, % (no concentration beside the values); 360,000 compounds, 0.56% hits; AID 651725; in the data active = activity change below about -65%; inconclusive = about -30% to -65%; inactive = above about -30%; note: % is set by controls: 0 for no effect and ±100 for the full control effect
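Compounds are tested against tagged Six1 and Eya2 proteins bridged by glutathione donor and nickel acceptor beads; after a one-hour incubation at 37 °C without light, AlphaScreen emission is recorded.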
PINK1 expr mod – changes PINK1 expression; PINK1 immunofluorescence, high-content cytometry, 24 h; Potency, µM (doses to about 76.6 µM), for inactives: top-dose activation (PINK1 increase), actives largely listed as activators; 410,000 compounds, 0.2% hits; AID 624263; active = well fitted activation curve with a large enough effect; inconclusive = small, poorly fitted or top-dose-only effect; inactive = flat fitted curve, though single readings scatter; cell line not stated here;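 note: potency is the fitted concentration of half-maximal effect; % of control where 0% means no effect; nearly all actives have a fitted effect of over 65% in size; a mitochondrial uncoupler was the plate control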
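PINK1 protein level read as immunofluorescence by microplate cytometer in a fixed, stained stable cell line after 24 h exposure to five compound concentrations, with CCCP as control.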
TRPML1 inh – blocks the human TRPML1 channel. 390,000 compounds, 0.02% hits. activity change, negative = inhibition, % (test concentration not listed). Q9GZU1. AID 624415. TRPML1-inducible cells, Ca2+ dye fluorescence, FDSS; stronger effect = lower value; inhibition of EC80 agonist-evoked calcium signal; in the data active means activity change below about -50%; inconclusive means about -30% to -50%; inactive means above about -30%;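 note: stimulus is agonist 54-4 at its EC80 concentration; % is set by controls: 0 for no effect and ±100 for the full control effect; compound concentration not given in the record; the text of the record puts the active cut at -80%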
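Calcium fluorescence in TRPML1-DL cells induced overnight with Tet: a 110 s read after compound pin addition, then a 110 s antagonist read after challenge with 54-4 at 4 uM final (EC80).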
The depositor's hits bear a star; ? = inconclusive; . = no result given; & = joins results of further samples; [ ] = remark or other dose. Rows are unselected. Share with any hit: about 1%.

molecule,D2 potentiator,TRPML1 ag,D2 ag,Six1-Eya2 blk,PINK1 expr mod,TRPML1 inh
CCOc1ccc(NC(=O)Cn2c(=O)n(CCCCCC(=O)NCc3ccccc3)c(=O)c3sccc32)cc1,.,2.7,.,.,10%,-4
Cc1cc(C)cc(NC(=O)CSc2nnc(-c3ccccc3C)o2)c1,1,0.0,-3.4,0,?,-7
CCNc1nc(Oc2ccc(C(=O)OC)cc2)nc(N2CCOCC2)n1,-1,0.7,1.4,-2,0.6%,-5
CCNC(=S)N1C2CCC1CC(NC(=O)NC1CCCCC1)C2 (stereo unspecified),-2,0.4,-2.2,3,.,1
C/C(=N\O)C(=O)NCCN1CCCCC1,1,0.8,-0.2,0,.,28
O=C(c1ccc(-n2cncn2)c([N+](=O)[O-])c1)N1CCN(S(=O)(=O)c2ccc(F)c(F)c2)CC1,26,0.2,0.0,0,-1.2%,-4
COC(=O)CCN1CCN(S(=O)(=O)c2ccccc2Br)CC1,-6,-0.2,0.2,8,-0.6%,0
CCCn1c(C)cc(C(=O)COc2ccc(-c3nnco3)cc2)c1C,-6,-0.6,0.3,-7,-0.4%,21
CC(C)=CC1C(C(=O)NCCOc2ccccc2)C1(C)C (stereo unspecified),-5,0.7,-4.7,10,-1.9%,12
COC(=O)C1=C(C)n2nnnc2NC1c1cc2ccccc2o1 (stereo unspecified),0,2.0,6.2,-5,7.1%[38.3 µM],-1
C=CCNC(=O)N1CCc2[nH]c3ccc(F)cc3c2C1,-10,1.1,-1.0,-2,0.3%,-21
Cc1ccc(NS(=O)(=O)c2ccc(/C=C/C(=O)O)cc2)cc1Cl,14,-0.6,-7.4,9,-1.4%,-4
CCc1cc2cc(C)ccc2nc1SCC(=O)NC1CCCC1,-11,1.7,-0.6,2,2.3%,-3
COc1cccc(CNc2ccc3[nH]c(=O)[nH]c3c2)c1OCc1ccccc1Cl,6,-0.4,1.1,?,-0.6%,0
CC(C)=CCCC(C)CN1CCC(N2CCC(C(=O)N3CCCC3)CC2)CC1 (stereo unspecified),-20,0.7,-3.3,-6,2.2%,-11

Single records, as listed above. Values in the order: D2 potentiator	TRPML1 ag	D2 ag	Six1-Eya2 blk	PINK1 expr mod	TRPML1 inh
COc1cccc(CNc2ccc3[nH]c(=O)[nH]c3c2)c1OCc1ccccc1Cl in the list: 6	-0.4	1.1	?	-0.6%	0
CCNc1nc(Oc2ccc(C(=O)OC)cc2)nc(N2CCOCC2)n1 in the list: -1	0.7	1.4	-2	0.6%	-5

More entries follow.
molecule,D2 potentiator,TRPML1 ag,D2 ag,Six1-Eya2 blk,PINK1 expr mod,TRPML1 inh
Cc1cc(NC(=O)COC(=O)[C@@H]2CCCN2C(=O)c2cccs2)no1,-5,-1.1,-2.0,10,4.5%,16
C=CCc1c(C)nc(C)nc1N/N=C/c1ccc(F)cc1,-14,1.3,-4.7,-6,0.8%,-5
C=CCNC(=O)C1=NN(c2c(F)c(F)cc(F)c2F)C(=O)CC1,-4,0.0,5.3,15,-0.2%,0
CC(=O)Nc1ccc2c3c(cccc13)C(=O)N(c1ccccc1)C2=O,-1,0.4,2.1,0,-0.7%,10
Cc1ccc(OCCC(=O)OCC(=O)Nc2c(C)nn(-c3ccccc3)c2C)cc1,12,1.8,1.0,1,0.0%,-18
CCOC(=O)c1ccc(NC(=O)CCOc2ccccc2)cc1,-17,0.4,-2.4,-6,3.1%,-9
Cc1ccccc1Cn1nnc2c(=O)[nH]c(C3CCN(C(=O)c4ccccc4Cl)CC3)nc21,.,1.6,.,.,1.7%,20
C=CCSc1nnc(NC(=O)C2CSC3(C)CCC(=O)N23)s1 (stereo unspecified),-5,1.0,-2.9,-4,-1.2%,2
CCOC(=O)C1(C)CCN1C(=O)c1ccc(SC(F)(F)F)cc1 (stereo unspecified),-3,0.1,-3.3,-3,-0.7%,8
COc1ccc(-c2cn(-c3ccc(Br)cc3)c3[n+]2CCS3)cc1,-34,0.1,-3.8,-8,1.0%,6
COc1ccc(OCC(O)CNC(=O)c2c(-c3ccccc3)noc2C)cc1 (stereo unspecified),-8,0.4,-1.8,3,1.1%,-7
CC(=O)Nc1sc(C)c(C)c1C(=O)OCC(=O)NCc1ccccc1,-7,-0.8,-4.8,-1,0.1%,20
COc1cccc(CN(c2ccccc2C(=O)O)S(=O)(=O)c2ccc(C)cc2)c1,-2,-0.1,-1.2,-12,-2.9%,17
OC1(c2cccc(C(F)(F)F)c2)CCN(c2ccc(-c3ccccc3)nn2)CC1,-7,2.9,0.5,1,?,16
CCOC(=O)c1n[nH]c(=O)c2ccccc12,-2,-0.4,-1.2,-21,-1.6%,17

Next compounds follow.
molecule,D2 potentiator,TRPML1 ag,D2 ag,Six1-Eya2 blk,PINK1 expr mod,TRPML1 inh
CCN(CC)CCNC(=O)CCn1c(=O)c2cccn2c2cccnc21,.,-0.3,.,.,1.6%,-10
Cc1cc2oc(=O)cc(COC(=O)c3n[nH]c4ccccc34)c2cc1C,7,0.8,-2.6,11,11%,8
CCCC(=O)Nc1nnc(SCc2cc(=O)c3ccc(C)cc3[nH]2)s1,.,2.4,.,.,2.8%,-11
CC(=NNC(=O)c1ccncc1)c1ccccc1O,-18,0.2,3.1,-71*,-1.3%,-14
Cn1c(-c2cc3ccc(OC(=O)C(C)(C)C)cc3oc2=O)nc2ccccc21,18,1.9,4.8,7,9.8%[38.3 µM],0
O=C(CCCCC(=O)OC1CCCCC1)OC1CCCCC1,-8,-0.6,1.1,7,5.2%,-11
CCc1nnc2c(Nc3ccc(N(CC)CC)cc3C)nc3ccccc3n12,.,2.2,.,.,-0.6%,4
COc1cc(/C=C2/C(=N)N3N=C(CC(=O)N4CCOCC4)SC3=NC2=O)ccc1OCc1ccccc1F,-9,-0.7,-4.3,-6,-0.6%,15
COc1cccc(-c2nc(CS(=O)CC(=O)NCc3ccc(F)cc3)c(C)o2)c1 (stereo unspecified),-12,0.6,-25,-1,2.6%,-6
COc1ccc(NC(=S)NCCc2ccccc2OC)c(OC)c1,-6,-0.5,-0.9,-6,0.2%,-1
CCOc1cc2[nH]c(=S)n(CCC(=O)NC3CCCCC3)c(=O)c2cc1OCC,-8,-0.1,-2.7,11,0.5%,-2
Cc1ccc(N2C(=O)c3ccccc3C2C(=O)c2ccc(C)c(C)c2O)cc1 (stereo unspecified),10,0.1,3.1,-7,-1.7%,-15
O=C(c1ccc(S(=O)(=O)N2CCCCC2)cc1)N(c1ccccn1)C1CCCCC1,0,0.3,-2.8,5,0.9%,2
COc1ccc(CCNc2ncnc3c2cnn3-c2ccc(C)cc2)cc1,.,2.2,.,.,8.3%,3
COc1ccc(-c2cn3nc(N4CCCC(C(=O)Nc5ccccc5OC)C4)sc3n2)cc1 (stereo unspecified),.,1.0,.,.,3.3%,19

(further entries)
molecule,D2 potentiator,TRPML1 ag,D2 ag,Six1-Eya2 blk,PINK1 expr mod,TRPML1 inh
Cc1nc([N+](=O)[O-])nn1C12CC3CC(CC(Br)(C3)C1)C2,-1,1.0,-1.0,1,0.1%[38.3 µM],21
Cc1cccc(CSc2ccc3nnc(CCNS(=O)(=O)c4ccccc4)n3n2)c1,.,1.5,.,.,-0.2%,24
COc1ccc2cc(CCl)c(Cl)nc2c1,-5,0.4,-4.9,-2,2.1%,6
Cc1c(NC(=O)c2ccc(CN3CCc4ccccc4C3)cc2)c(=O)n(-c2ccccc2)n1C,-39,-0.8,-2.0,-2,-0.9%,21
COc1cc2c(cc1OC)C(C)N(C(=O)c1cc3c(C)cc(C)cc3[nH]1)CC2 (stereo unspecified),-5,3.3,9.8,-17,-1.1%,-2
O=C(NCCS(=O)(=O)c1ccc(Cl)cc1)c1ccc(F)cc1,-8,-0.2,-1.1,4,0.8%,5
O=C(O)CCn1cc(/C=N/O)c(-c2cccc([N+](=O)[O-])c2)n1,-1,0.1,-5.3,0,1.4%,5
O=C(O)CCc1nnc2cnc3ccccc3n12,.,-0.7,.,.,2.0%,-12
COc1ccccc1N1CCN(C(=O)c2ccc3[nH]c(C)c(C)c3c2)CC1,-12,0.6,-3.0,-19,1.3%,1
Cc1ccc(C)c(N2CCN(C(=O)CN3C(=S)NC(C)(C)CC3C)CC2)c1 (stereo unspecified),-3,0.1,2.1,0,-1.2%,6
COc1ccc(CCNC(=O)CCNS(=O)(=O)c2cccc(Cl)c2)cc1OC,-6,-0.1,-1.9,-2,-0.9%,-2
CCOc1ccccc1CN1CCN(CC2CC2)CC1CCO (stereo unspecified),-20,-0.3,-1.9,0,-0.7%,3
COc1ccc2nc(-c3ccccc3)nc(SC)c2c1,.,1.6,-0.4,14,1.9%,27
COc1ccc(-c2nnn3c2nc(NCc2ccccc2)c2ccccc23)cc1,0,-0.6&-1.0,-3.3,5,1.9%&0.9%,8&4
CCc1oc2ccccc2c1C(=O)CCN1CCCCC1,-14,-0.3,-1.3,-3,3.6%[38.3 µM],-14

Among those listed so far, these contain a nitro group on carbon:
molecule,D2 potentiator,TRPML1 ag,D2 ag,Six1-Eya2 blk,PINK1 expr mod,TRPML1 inh
O=C(c1ccc(-n2cncn2)c([N+](=O)[O-])c1)N1CCN(S(=O)(=O)c2ccc(F)c(F)c2)CC1,26,0.2,0.0,0,-1.2%,-4
Cc1nc([N+](=O)[O-])nn1C12CC3CC(CC(Br)(C3)C1)C2,-1,1.0,-1.0,1,0.1%[38.3 µM],21
O=C(O)CCn1cc(/C=N/O)c(-c2cccc([N+](=O)[O-])c2)n1,-1,0.1,-5.3,0,1.4%,5

Next section.
molecule,D2 potentiator,TRPML1 ag,D2 ag,Six1-Eya2 blk,PINK1 expr mod,TRPML1 inh
CCCNC(=O)c1onc(CSc2ccccc2)c1C(=O)NCCC,-7,0.9,-0.7,4,-0.4%,-18
Cc1cc(C(F)F)n2nc(C(=O)Nc3cc(C)on3)nc2n1,-14,1.3,0.1,9,3.2%,-5
Cc1ccc(-n2ncc3c(NCc4ccccc4)ncnc32)cc1Cl,.,-0.6,.,.,4.4%,30
Cc1cccc(CCNC(=O)CCc2c(C)nc3c(-c4ccc(F)cc4)c(C)nn3c2C)c1,.,-0.5,.,.,2.5%,10
C=CCn1c(COc2ccccc2)nnc1SCC(=O)Nc1ccc2c(c1)OCCO2,-13,2.2,-2.1,7,-2.8%,9
O=C1/C(=C/c2ccccn2)SC(=S)N1N1CCOCC1,8,1.0,2.2,0,4.3%,3
Cc1nc(-c2ccccc2)nc(Cl)c1Cl,1,0.3,-1.9,8,6.0%,39
O=C(CSc1nnc(CNC(=O)c2cccc(C(F)(F)F)c2)o1)NCc1ccco1,-10,-0.4,-5.9,-6,1.3%,20
CCCC(=O)NCCCc1nc2ccccc2n1C(C)C,-13,0.0,-6.2,-2,4.7%,-9
FC(F)(F)c1nc(SCc2ccc(Cl)cc2Cl)n[nH]1,-19,1.2,0.3,-4,?,-9

In another format: two of the compounds above
Every second line gives: D2 potentiator	TRPML1 ag	D2 ag	Six1-Eya2 blk	PINK1 expr mod	TRPML1 inh
Cc1ccc(-n2ncc3c(NCc4ccccc4)ncnc32)cc1Cl
  .	-0.6	.	.	4.4%	30
CCCNC(=O)c1onc(CSc2ccccc2)c1C(=O)NCCC
  -7	0.9	-0.7	4	-0.4%	-18
